# TRPML1 agonist: human mucolipin-1 channel agonism; TRPML1-expressing cells, Ca2+ dye fluorescence, FDSS; host cell line not named in the record; reference of the full effect not given here; actives 0.12% (n = 410,000); activation, % (concentration not given with the values); AID 624414; Q9GZU1; in the data active = activation above about 50%; inconclusive = about 30% to 50%; inactive = below about 30%; note: 0% is about no effect; the text of the record puts the active cut at 80%
# Target sequence (Q9GZU1 whole entry, looked up): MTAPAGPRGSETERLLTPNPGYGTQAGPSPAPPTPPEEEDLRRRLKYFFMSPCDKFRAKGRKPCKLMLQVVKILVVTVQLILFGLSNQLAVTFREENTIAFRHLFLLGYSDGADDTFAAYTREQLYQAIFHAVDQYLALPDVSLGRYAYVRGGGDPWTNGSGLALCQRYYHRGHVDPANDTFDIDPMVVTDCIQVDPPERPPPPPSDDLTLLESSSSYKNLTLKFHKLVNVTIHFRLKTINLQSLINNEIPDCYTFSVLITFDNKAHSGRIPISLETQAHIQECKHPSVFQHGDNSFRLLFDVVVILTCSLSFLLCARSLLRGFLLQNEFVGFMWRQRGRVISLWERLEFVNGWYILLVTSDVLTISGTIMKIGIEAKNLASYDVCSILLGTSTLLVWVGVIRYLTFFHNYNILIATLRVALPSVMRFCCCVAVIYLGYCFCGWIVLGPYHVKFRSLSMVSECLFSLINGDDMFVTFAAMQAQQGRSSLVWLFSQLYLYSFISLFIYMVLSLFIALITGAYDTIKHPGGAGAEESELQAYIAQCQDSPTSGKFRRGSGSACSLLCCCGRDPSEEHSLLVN
#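 Tet-induced TRPML1-DL cells, 1,500 per well, cultured overnight, were loaded with a no-wash Ca2+ dye for 45–90 min. Calcium fluorescence was recorded on the FDSS for 110 s after compound addition, before the EC80 agonist (4 uM 54-4) was added.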
# gsp agonist: gsp mutant agonism | actives 0.13% (n = 340,000) | gsp mutant cells, cAMP HTRF, 30 min; control for the full effect not named in the record | AID 624287 | Potency, µM (series often up to 76.9 µM), for the others: at the highest dose activation (cAMP increase), usual class: activators; active = well fitted activation curve with a large enough effect; inconclusive = small, poorly fitted or top-dose-only effect, or another doubt; inactive = no such curve, though single readings can be large or run the other way; cell line not stated here;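 note: phosphodiesterase inhibitor Ro 20-1724 added with compounds to block cAMP breakdown; potency is the fitted concentration of half-maximal effect; nearly all actives have a fitted effect of over 60% in size; about a fifth of the inactives were tested at one dose only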
#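 Cells in DMEM/10% FBS with G418 were pretreated with compounds in DMSO plus […] (300 uM stock) for 30 min at 37C. cAMP was measured by HTRF (cAMP-d2 plus anti-cAMP antibody-K) after 30 min at room temperature.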
# ClpP mod: qHTS Assay for Activators of ClpP | purified B. subtilis ClpP, FRET peptide cleavage, 20 min | Potency, µM (doses to about 57.5 µM), inactives show top-dose activity change, negative = active | actives 1.9% (n = 340,000) | AID 651965, 2013; active = well fitted falling curve with a large enough effect; inconclusive = small, poorly fitted or top-dose-only effect; inactive = no such curve, though single readings can be large or run the other way; note: potency is the fitted concentration of half-maximal effect; the source files actives as falling curves though it sought activators and does not explain the sign; nearly all actives have a fitted effect of over 65% in size; many hits overshoot -100%
# Target sequence (P80244 whole entry, looked up): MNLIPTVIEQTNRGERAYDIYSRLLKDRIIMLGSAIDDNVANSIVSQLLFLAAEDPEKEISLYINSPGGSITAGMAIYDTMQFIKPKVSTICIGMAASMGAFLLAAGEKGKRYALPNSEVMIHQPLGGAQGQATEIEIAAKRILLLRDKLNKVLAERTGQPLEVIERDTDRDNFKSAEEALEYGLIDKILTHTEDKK
#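 Buffer: 100 mM Tris/HCl pH8, 100 mM KCl, 0.05% low protease BSA, 2.5% glycerol, 0.01% Tween-20. ClpP 10 microg/mL final; 20 min RT; delta FRET normalized to ADEP and DMSO controls.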
# gsp antag: antagonists of gsp mutant (McCune-Albright syndrome); gsp-mutant cells, cAMP HTRF, 30 min; control for the full effect not named in the record; Potency, µM (series often up to 76.9 µM), for inactives: at the highest dose activity change, negative = inhibition, most hits filed as inhibitors; actives 0.4% (n = 340,000); AID 624288; active = falling curve of any shape with a large fitted effect; inconclusive = falling curve, mostly with a smaller effect; inactive = flat or rising curve; cell line not stated here;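 note: intracellular cAMP measured with PDE inhibitor Ro 20-1724 present during compound exposure; potency is the fitted concentration of half-maximal effect; % is set by controls: 0 for no effect and ±100 for the full control effect; nearly all actives have a fitted effect of over 65% in size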
#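 Cells, 2000/well, grown 16–24 h in DMEM 10% FBS with 0.5 mg/ml G418, then compounds plus […] (300 uM addition stock), 30 min at 37C. cAMP read by HTRF (cAMP-d2 and anti-cAMP antibody-K in lysis buffer) after 30 min RT.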
# TRPML1 inh: blocks the human TRPML1 channel; activity change, negative = inhibition, % (no concentration beside the values); actives 0.02% (n = 390,000); TRPML1-inducible cells, Ca2+ dye fluorescence, FDSS; active compounds read low; inhibition of EC80 agonist-evoked calcium signal; AID 624415; in the data active means activity change below about -50%; inconclusive means about -30% to -50%; inactive means above about -30%;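 note: stimulus is agonist 54-4 at its EC80 concentration; % is set by controls: 0 for no effect and ±100 for the full control effect; compound concentration not given in the record; the text of the record puts the active cut at -80%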
#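 TRPML1-DL cells, Tet-induced overnight (~16 h, 37 °C) at 1,500 cells/well, were loaded with Ca8 no-wash dye plus quencher for 45-90 min at room temperature. Compounds were pinned during FDSS kinetic reading; agonist 54-4 at EC80 (4 uM final) then added.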
# Menin MLL FP FL: displaces fluorescein MLL peptide from human menin | Fluorescence polarization, fluorescein-MLL peptide displacement from menin | FP activity change, % at 61.4 µM | 290,000 tested, under 10 active | AID 1766; inconclusive = falling polarisation curve, or a change in total fluorescence; inactive = total fluorescence flat and polarisation flat or rising; no compound was filed as active; the % refers to the polarisation; negative = inhibition;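 note: % of control where 0% means no effect; inhibitors lower the polarisation; unlabelled MLL peptide was the positive control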
# * hit, by the source's call; ? = inconclusive; / = no result given; & = joins results of further samples; [ ] = remark or other dose.
SMILES,TRPML1 agonist,gsp agonist,ClpP mod,gsp antag,TRPML1 inh,Menin MLL FP FL
CC(Nc1cccc([N+](=O)[O-])c1)C(=O)Nc1ccc(S(=O)(=O)N2CCCC2)cc1 (configuration not stated),-0.4,-2.5%,-12.6%,-7.6%,10.8,/
CCCCOP(=O)(c1ccc(N(C)C)cc1)C(O)c1cccnc1 (configuration not stated),-0.5,-48.2%[inhibitor],-1.1%,-7.0%,2.6,2.5
CSc1ccc(C2C(C#N)=C(N)Oc3cc4c(cc32)OCO4)cc1 (configuration not stated),-0.3,26.3%,-4.1%,-11.3%,-11.1,3.4
Cc1ccc(NC(=O)C2CCN(C(=O)c3ccco3)CC2)cc1C,1.3,-1.8%,/,-0.9%,-4.7,/
C[C@H]1CN=C(N(C)C)N1CCc1ccccc1,-0.1,-13.0%,-1.6%,9.7%,-9.6,/
CCCCC(c1nnnn1CCOC)N1CCN(c2cccc(OC)c2)CC1 (configuration not stated),-0.6,-10.3%,-1.4%,11.8%,9.0,-0.2
NC(=O)NC(=O)COC(=O)c1ccccc1Oc1ccccc1,0.7,2.9%,0.6%,-2.3%[15.4 µM],-15.9,1.6
CCn1c(SCC(=O)NCc2cccs2)nc2c1c(=O)n(C)c(=O)n2C,-0.1,14.2%,1.6%,0.9%,8.3,0.8
O=C(NCc1ccco1)c1ccc(-c2ccc(Cl)cc2)o1,/,4.0%,-28.9%,1.8%,/,0.7
COC(=O)c1ccc(Cl)c(NC(=O)CN2CCN(C)CC2)c1,14.7,-1.9%,-26.7%,7.8%,2.8,-0.5
COCCCNC(=O)c1ccc(S(=O)(=O)c2ccc(Cl)cc2)c(NC(C)=O)c1,2.0,18.0%,-7.1%,3.9%,6.7,1.2
NS(=O)(=O)c1ccc(CCNC(=O)c2ccccc2[N+](=O)[O-])cc1,-0.1,0.0%,1.3%,12.7%,18.5,/
Cn1cc(C(=O)c2cccc(Cl)c2Cl)cc1C#N,2.0,-9.6%[15.4 µM],/,0.5%,18.7,-2.9
O=C(Nc1ccc(F)cc1)C1CCCCC1,-1.3,-8.5%,1.5%,3.0%,2.6,-0.6
O=C(O)C(Cc1ccccc1)NC(=O)C(c1ccccc1)c1ccccc1 (configuration not stated),-0.3,-16.7%,/,0.0%,16.1,0.0
Cc1ccc(C)c(N2CC(C(=O)O)CC2=O)c1 (configuration not stated),1.8,-9.7%[15.4 µM],/,8.5%,-15.0,0.7
O=C1CCC(CCC(=O)N2CCCC(C(=O)c3ccc4c5c(cccc35)CC4)C2)=NN1 (configuration not stated),1.0,-0.2%,3.6%,-1.0%,21.0,2.3
CCOC(=O)c1ccc(NC(=O)CSc2nc(C)cc(=O)[nH]2)cc1,-0.1,-31.7%[inhibitor],-0.5%,-9.0%,5.1,2.9
CCc1ccc(S(=O)(=O)Nc2ccc(N3CCN(C)CC3)cc2)cc1,-0.1,-2.2%[15.4 µM],/,8.5%,7.1,-2.4
CCCOc1ccc(C(=O)N/N=C/c2ccc(-c3ccc(S(=O)(=O)Nc4ncccn4)cc3)o2)cc1,0.0,-26.4%,?,?,14.9,0.2
COc1cc(/C=N/NC(=O)C(C)Nc2n[nH]c(=O)[nH]c2=O)cc(OC)c1O (configuration not stated),0.4,1.5%[15.4 µM],-0.5%,5.9%,-2.3,-0.2
CC(CNC(=O)c1cc2ccccn2n1)c1ccccc1 (configuration not stated),-1.0,/,?,/,-0.2,/
N#Cc1ccc(C(=O)N(Cc2ccco2)c2c(N)n(Cc3ccccc3)c(=O)[nH]c2=O)cc1,0.5,4.0%,-11.9%,6.6%,2.1,/
COC(=O)c1cc(OC)c(OC)cc1NC(=O)Nc1cccc(C(C)=O)c1,0.7,0.7%,/,-26.7%,2.8,-2.6
COc1ccc(OCC(=O)NNC(=O)C(=O)Nc2cc(OC)ccc2OC)cc1,-1.0,-17.1%,0.4%,-14.2%,-24.0,/
O=C(O)c1cncc(C#CCC2CCCCC2)c1,0.1,5.7%[15.4 µM],0.6%,-10.8%,2.5,-1.9
CCC/C(O)=C1\C(=O)CC(C)(C)CC1=Nc1ccc(OC)cc1,2.5,-29.6%,/,-12.8%,21.4,5.2
Cc1ccc(SCc2ccc(C(=O)Nc3ccccc3Br)cc2)cc1,0.9,-32.3%[inhibitor],-4.8%,-6.6%,-24.8,0.8
Cc1ccc(NC2c3ncccc3C(=O)N2Cc2ccco2)c(C)c1 (configuration not stated),-0.4,-4.2%,-1.2%,11.6%,5.1,-0.9
Cc1cccc2sc(NNC(=O)c3ccc4c(c3)OCCO4)nc12,-0.6,0.1%,-1.9%,-0.4%,2.4,3.0
Cc1ccc(Nc2nc(-c3sc(NC(=O)c4ccco4)nc3C)cs2)cc1,0.6,/,-2.7%,?,-6.2,?
COc1ccc(N(CC(=O)NCCSc2ccccn2)S(C)(=O)=O)cc1,-1.1,-41.4%[inhibitor],0.5%,16.4%,-2.8,-0.1
CCOc1ccc(NC2=C(OC)C(=O)c3ccccc3C2=O)cc1,0.4,-4.3%[15.4 µM],-0.7%,-7.9%,-12.0,2.8
O=[N+]([O-])c1ccc(Cl)c(S(=O)(=O)Nc2cccc(-c3ccc(N4CCCC4)nn3)c2)c1,0.9,1.6%,0.7%,-24.4%,12.7,/
CCCCNC(=O)CSc1nccn1Cc1ccccc1,-0.2,-36.4%[inhibitor],0.0%,3.8%,-8.3,1.6
C/C(=N\Nc1nc(N)cc(Cl)n1)c1cccc(N)c1,-0.7,9.3%,-11.4%,8.6%,-18.4,/
Cc1ccccc1OCC(=O)N1CCc2ccccc2C1,/,-3.6%,-3.0%,-1.8%,/,2.2
C[C@H](NS(=O)(=O)c1ccc2c(c1)OCCCO2)C(=O)N1CCN(Cc2ccccc2)CC1,0.3,9.7%,-2.3%,7.5%,-6.4,/
CNC(=O)CSc1nnc(-c2ccco2)n1-c1ccc(C)cc1,-0.4,34.7%,2.9%,-7.0%,1.8,-0.7
Cc1cc(C)cc(C(=O)N(Cc2nc(-c3ccc(Cl)cc3)no2)C(C)C)c1,-0.7,/,-0.6%,/,7.4,/
COc1ccccc1OCCn1cc(/C=N/NC(N)=S)c2ccccc21,2.2,1.3%,-5.9%,-0.6%,12.1,3.6
Cc1ccccc1-c1ncnn1-c1sc2c(c1C#N)CCCCC2,-1.1,/,0.4%,/,6.2,/
COc1ccc(C2CC(=O)Nc3c2c(=O)nc2c(C)cccn32)cc1 (configuration not stated),2.1,/,-28.9%,/,-15.9,/
CCc1ccc(N2C(=O)CN(Cc3ccc(OC)c(OC)c3)C2=S)cc1,1.7,23.5%[15.4 µM],-2.6%,-20.5%,-7.2,3.8
Cc1ccccc1OCC(=O)NN1C(=O)C2C3C=CC(O3)C2C1=O (configuration not stated),-0.2,13.2%,/,7.1%,-5.6,-1.1
O=C(Nc1ccc2c(c1)OCO2)C1CCCCC1,0.7,?,?,8.7%,1.4,0.2
CCc1ccc(-c2cc3c(N4CCN(c5ccccc5)CC4)nccn3n2)cc1,1.9,/,-4.1%,/,15.6,/
O=C1CCC2CN3CCc4c([nH]c5ccccc45)C3CC2C1 (configuration not stated),3.3,-53.8%[inhibitor],-16.8%,/,-9.3,/
CC1CCc2cc(F)ccc2N1C(=O)CCl (configuration not stated),-0.6,3.1%[15.4 µM],117.8%,-26.3%,-3.2,-2.2
O=[N+]([O-])c1ccc(N2CCOCC2)cc1O,-0.3,-4.4%,/,4.5%,-6.8,4.9

# Next section
SMILES,TRPML1 agonist,gsp agonist,ClpP mod,gsp antag,TRPML1 inh,Menin MLL FP FL
CC(C)CC(NC(=O)OC(C)(C)C)c1cn([C@@H](Cc2cc3ccccc3[nH]2)C(=O)N2CCN(C(=O)OC(C)(C)C)CC2)nn1 (some centres not stated),1.7,-15.7%,4.0%,-9.4%,-7.5,-5.0
CC1(C)CC(c2nc(-c3ccc(Cl)cc3)cs2)CCS1 (configuration not stated),3.5,-14.4%,-1.3%,-3.2%,16.3,4.3
Cc1cc(NCc2ccco2)nc(N2CCC(C(=O)NC3CCCCC3)CC2)n1,0.0,7.2%[15.4 µM],/,0.7%,4.7,5.0
CN(Cc1ccccc1)C(=O)COC(=O)c1cc(NS(=O)(=O)c2cccs2)ccc1O,0.7,7.9%,-3.8%,?,1.5,-0.7
COc1ccc(NC(=O)NCCCN2CCCCC2C)cc1 (configuration not stated),-1.0,-10.4%,0.9%,13.1%,6.1,2.9
COc1ccc(Cn2ccc3nc(C)c(C(=O)Nc4ccc(OC)cc4)cc3c2=O)cc1,2.7,/,-2.4%,/,13.4,/
CC(C)NCC(O)COc1ccc(COCCOC(C)C)cc1 (configuration not stated),0.1,/,0.2%,1.2%,16.3,0.7&-0.7
Cc1ccc(CN2CCc3nc(N4CCN(C)CC4)ncc3C2)cc1,1.5,/,0.8%,/,13.0,/
COC(=O)c1c(-c2snnc2C)n[nH]c1C,-0.5,-12.8%[15.4 µM],1.2%,5.1%,44.8,4.6
Cc1ccc2c(c1)N(CC(=O)Nc1ccccc1F)C(=O)CO2,0.6,-12.8%,-1.3%,0.8%,10.7,-1.1

# 3 compounds from above, arranged by the number in gsp antag, lowest first:
SMILES	gsp antag
CCc1ccc(N2C(=O)CN(Cc3ccc(OC)c(OC)c3)C2=S)cc1	-20.5%
CC(C)CC(NC(=O)OC(C)(C)C)c1cn([C@@H](Cc2cc3ccccc3[nH]2)C(=O)N2CCN(C(=O)OC(C)(C)C)CC2)nn1 (some centres not stated)	-9.4%
N#Cc1ccc(C(=O)N(Cc2ccco2)c2c(N)n(Cc3ccccc3)c(=O)[nH]c2=O)cc1	6.6%

# The results go on:
SMILES,TRPML1 agonist,gsp agonist,ClpP mod,gsp antag,TRPML1 inh,Menin MLL FP FL
O=C(Nc1nc(-c2ccccn2)cs1)c1ccc([N+](=O)[O-])o1,0.8,-32.2%[15.4 µM],/,-14.5%,-22.3,-1.6
Cn1cc(SCC(=O)Nc2ccc3c(c2)OCO3)c2ccccc21,0.2,1.0%,1.8%,-14.7%,-0.2,0.0
Cc1cccc2sc(N(Cc3cccnc3)C(=O)COc3ccccc3)nc12,1.9,/,-16.4%,/,49.1,/
CC(NC(=O)C1CCN(C(=O)N2CCOc3ccc(Cl)cc32)CC1)c1ccccc1 (configuration not stated),0.1,/,-0.2%,/,-2.4,/
Cc1ccc2nc(Cl)c(/C=N/n3c(C)nnc3C)cc2c1,-0.3,-22.6%[15.4 µM],0.1%,-4.0%,-4.1,-0.8
Cc1csc(NC(=O)CSc2ccccc2F)n1,4.5,-1.6%[15.4 µM],/,/,-5.8,0.3
O=C(Nc1ccc2c(c1)OCO2)c1cccc(S(=O)(=O)N2CCOCC2)c1,0.5,-0.6%,-0.7%,0.8%,-14.0,/
CCC(C)(C)c1ccc(OCCCC[n+]2ccc(C)cc2)c(C(C)(C)CC)c1,3.2,?,-0.2%,-1.2%,53.3,-1.9

# Compound activity (PubChem BioAssay)
